Insulin prom inh – TRM-6 insulin promoter activity inhibition; TRM-6 cells (human fetal islet line), insulin promoter-eGFP reporter, imaging; reporter expression induced with tamoxifen; inhibition, % at 2 µM; 130,000 tested, 0.9% active; AID 1273;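 active means inhibition above the mean plus 3 SD, with well images judged a real hit on visual review, cut at about 60% in these data, passing the limit was not always enough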
PKD1 inh – PKD1 (human) kinase inhibition; AID 797; Q15139; PKD1 kinase fluorescence polarization assay; inhibition, %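 (about 10 µM by stock and volumes)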; 200,000 tested, 0.056% active;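 active means inhibition of 50% or more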;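 further: controls were vehicle for no effect and a reference inhibitor for full effect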
HSV replic up – HSV replication enhancement; HSV replication augmentation in cells, fold increase; maximum fold increase; 220,000 tested, 0.005% active; AID 1956;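 active means peak rise of 1.5-fold or more in the series; tested in PC3 cells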;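 further: first round at 10 µM; read as green reporter fluorescence; hits show the peak of a series up to 25 µM; 1 = signal of infected wells without compound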
RGS16-Gao HTS – regulators of human RGS16-Galphao interaction | binding response (% of control), % at 10 µM | 220,000 tested, 0.38% active | AID 1441 | bead-based flow cytometry RGS16-Galphao binding, fluorescence; actives lie on both sides | O15492+P09471;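 active means below 25% or above 175%, edge rows of some plates excepted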;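 further: Galphao activated by GDP with aluminum fluoride before binding; 100% = wells without compound and 0% = beads without RGS; some results beyond the cut were filed as inactive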
Target sequence (O15492 whole entry, looked up): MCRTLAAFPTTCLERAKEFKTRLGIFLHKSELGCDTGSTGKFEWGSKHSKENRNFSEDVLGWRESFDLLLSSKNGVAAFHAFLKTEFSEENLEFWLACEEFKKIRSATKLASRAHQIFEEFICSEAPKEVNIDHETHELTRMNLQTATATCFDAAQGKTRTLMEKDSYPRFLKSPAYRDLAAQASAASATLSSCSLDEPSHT
Target sequence (P09471 whole entry, looked up): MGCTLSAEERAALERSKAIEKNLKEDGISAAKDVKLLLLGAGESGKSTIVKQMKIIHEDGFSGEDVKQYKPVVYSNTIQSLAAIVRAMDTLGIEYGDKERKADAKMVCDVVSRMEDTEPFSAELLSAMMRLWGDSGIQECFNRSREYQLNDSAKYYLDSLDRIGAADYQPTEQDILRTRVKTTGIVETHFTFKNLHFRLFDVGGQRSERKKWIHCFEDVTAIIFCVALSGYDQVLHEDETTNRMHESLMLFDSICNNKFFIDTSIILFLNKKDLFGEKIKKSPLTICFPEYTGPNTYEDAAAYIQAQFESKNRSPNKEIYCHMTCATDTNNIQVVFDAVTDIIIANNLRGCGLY
GALR2 agonist – GALR2 (human) receptor agonism. O43603. GALR2-expressing cells, agonist activation read-out. activation, %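 (tested at 5 µM)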. 140,000 tested, 0.48% active. AID 803;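 active means above mean plus 3 SD of all compounds, about 5% in these data, not always enough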;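 further: 0% = vehicle buffer wells and 100% = reference agonist at full effect; tested in CHO reporter cells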
Target sequence (O43603 whole entry, looked up): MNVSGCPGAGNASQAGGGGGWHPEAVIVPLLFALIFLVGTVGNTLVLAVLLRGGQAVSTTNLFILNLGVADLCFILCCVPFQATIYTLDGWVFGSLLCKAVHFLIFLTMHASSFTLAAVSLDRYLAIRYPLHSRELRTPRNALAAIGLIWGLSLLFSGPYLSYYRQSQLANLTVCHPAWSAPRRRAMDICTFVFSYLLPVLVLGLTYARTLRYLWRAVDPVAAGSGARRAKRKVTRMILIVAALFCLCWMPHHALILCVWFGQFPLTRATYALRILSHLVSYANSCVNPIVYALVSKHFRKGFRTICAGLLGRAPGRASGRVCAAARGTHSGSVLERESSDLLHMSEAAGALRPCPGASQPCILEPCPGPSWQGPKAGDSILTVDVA
Insulin prom inh cell count – recorded beside Insulin prom inh, whose call it bears; normalized cell count, %; measured here: cell count, toxicity; reference of the scale not given here;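 cells exposed to compound for 48 h; stained nuclei by imaging scaled within each plate; lower means fewer cells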
HSV replic up primary fold – further read-out of HSV replic up, marked with its call; fold increase; compound at 10 µM; measured here: primary screen fold increase 10 uM; tested in PC3 cells;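 GFP signal in the first replicate; 1 = infected wells without compound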
Starred values were filed as active, the others as inactive; i = inactive; . = no result given. Not a hit list, and some 1.1% of all compounds hit somewhere here.

No.	molecule	GALR2 agonist	RGS16-Gao HTS	Insulin prom inh cell count	PKD1 inh
1	CCc1ccc(NC(=O)c2cc(-c3ccco3)on2)cc1	0.5	99	100	-4
2	CCCc1ccc(OCCNC(=O)C2CCCCC2)cc1	.	98	105	6
3	C=CCn1c(SCCOC)nc2c1c(=O)[nH]c(=O)n2C	-3.4	101	.	-4
4	C=CCn1c(SCC(=O)/C(C#N)=C(\C)N)nnc1C1CCCCC1	-3.4	159	.	-5
5	Brc1ccc(CN2CCSCC2)cc1	-1.6	111	90	-2
6	COc1ccc(CCNc2oc(COc3ccccc3Cl)nc2C#N)cc1OC	0.9	97	.	-13
7	Cc1nn(Cc2ccccc2Cl)c2sc(C(=O)Nc3nccs3)cc12	1.0	102	61	-20
8	Cc1cc(C(=O)N(CCC#N)Cc2cccs2)no1	.	105	.	.
9	OCCC1CN(C2CCN(c3ccccc3)CC2)CCN1Cc1ccc(F)c(F)c1 (stereo unspecified)	.	99	.	2
10	Cn1nnnc1SCc1nnc(-c2ccccc2Br)o1	-2.9	110	63	-3
11	CC(=O)CSc1nnc(Cc2ccc([N+](=O)[O-])cc2)o1	-1.3	106	.	4
12	Cn1c(/C=C/c2cccc([N+](=O)[O-])c2)nc2ccccc2c1=O	.	105	122	3
13	Cc1[nH]c2ccccc2c1C1(O)C(=O)N(Cc2ccc3c(c2)OCO3)c2ccccc21 (stereo unspecified)	0.1	95	113	-4
14	Cc1ccc(-n2cc(C(=O)c3ccc(N4CCN(C)CC4)cc3)nn2)cc1Cl	.	93	.	-5
15	Oc1cc(-c2ccccc2)c2ccccc2c1	0.2	93	105	0

No.	Insulin prom inh	HSV replic up primary fold	HSV replic up
1	-15	1.2	i
2	6	1.1	i
3	.	0.85	i
4	.	0.96	i
5	-16	0.97	i
6	.	0.91	i
7	13	0.83	i
8	.	1	i
9	.	1	i
10	20	0.83	i
11	.	0.95	i
12	22	0.89	i
13	-48	.	.
14	.	1	i
15	-19	0.87	i

Further structures follow.
No.	molecule	GALR2 agonist	RGS16-Gao HTS	Insulin prom inh cell count	PKD1 inh
16	C=CCNc1cnn(CC(C)=O)c(=O)c1Br	-3.7	93	120	2
17	CC1CCN(CCc2nc3cc(NS(=O)(=O)c4ccccc4)ccc3n2C)CC1	-1.4	95	.	-9
18	COC(=O)c1ccc(NC(=S)N2CCN(C)CC2)cc1	.	93	51	6
19	COc1ccccc1NC(=O)CN1CCC(c2nc3ccc(C)cc3[nH]2)CC1	.	122	.	2
20	CCN(CC)P(=O)(Nc1ccc(C)cc1Br)c1ccc(N(C)C)cc1NC(=O)c1ccco1 (stereo unspecified)	.	107	112	-4
21	O=C(COC(=O)c1cc(-c2cccc(Br)c2)nc2ccccc12)NCC1CCCO1 (stereo unspecified)	.	101	.	4
22	Cc1ccccc1NC(=S)N/N=C1\CC(C)(C)Oc2ccc(O)cc21	.	105	.	-6
23	N#CCCCSC1=C(C#N)C(c2ccccc2Cl)CC(=O)N1 (stereo unspecified)	-2.0	99	.	-2
24	Cc1onc(-c2ccccc2Cl)c1C(=O)Nc1nnc(-c2ccc(F)cc2)s1	-1.7	118	.	4
25	Cc1cc(Nc2cccc([N+](=O)[O-])c2)n2c(nc3ccccc32)c1C#N	-5.0	95	108	-4
26	CC(=O)N1CCN(S(=O)(=O)c2cccc(C(=O)Nc3nc4c(s3)CCCC4)c2)CC1	-0.5	100	120	-6
27	O=C(NN=C(Cc1ccccc1)Cc1ccccc1)c1ccccc1O	.	89	118	1
28	COc1ccc(-c2noc(CCC(=O)NC3CCCC3)n2)cc1	.	100	.	.
29	CCN(CC)S(=O)(=O)c1cccc(-c2nnc(SCC(=O)NC3CCCC3)n2N)c1	-3.0	101	43	-6
30	COc1ccc(Oc2coc3cc(OC(=O)/C=C/c4ccc(F)cc4)ccc3c2=O)cc1	-1.3	102	.	5

No.	Insulin prom inh	HSV replic up primary fold	HSV replic up
16	-6	0.96	i
17	.	0.79	i
18	27	1.1	i
19	.	0.97	i
20	-21	0.97	i
21	.	0.89	i
22	.	0.93	i
23	.	0.84	i
24	.	1	i
25	-29	.	.
26	6	0.86	i
27	15	0.98	i
28	.	1	i
29	-69	0.92	i
30	.	1.1	i

Following part:
No.	molecule	GALR2 agonist	RGS16-Gao HTS	Insulin prom inh cell count	PKD1 inh
31	CCOc1ccc(NC(=O)c2cccc(-n3cnnn3)c2)cc1	-1.6	97	83	-5
32	O=[N+]([O-])c1ccc(-c2nc(-c3ccncc3)no2)cc1	.	94	.	.
33	CCCCC(=O)Nc1cccc(NC(=S)NC(=O)Cc2ccccc2)c1	1.0	101	119	-8
34	COc1cc(/C=N/NC(=O)c2ccc3nc[nH]c3c2)ccc1O	.	106	.	.
35	COc1ccc(OC)c(C(=O)c2ccc(C(=O)Nc3ccccc3)cc2)c1	-1.7	83	154	-1
36	Cc1ccc(C)c(N2CCN(C(=O)Cc3ccc(-n4c(=O)[nH]c5ccsc5c4=O)cc3)CC2)c1	0.6	102	162	2
37	O=C(O)c1sc2cccc(Cl)c2c1Cl	.	96	124	0
38	COc1cc(NC(=O)c2cccc(Cl)c2)c(OC)cc1NC(=O)CN1CCOCC1	-0.4	102	.	1
39	O=C(NCc1ccc2c(c1)OCO2)c1cc(S(=O)(=O)N2CCCCC2)ccc1F	-0.7	101	100	-7
40	Brc1ccc(-c2nnc(-c3cccc(Br)c3)o2)cc1	-0.6	88	121	-12
41	COCCN(CCOC)S(=O)(=O)c1ccc(Cl)nc1	.	99	.	.
42	Cn1c(=O)oc2cc(S(=O)(=O)N3CCC(C(=O)N4CC=C(c5ccccc5)CC4)CC3)ccc21	-1.5	102	.	6
43	CN1C2C=C3C(C#N)=C(N)C(C#N)(C#N)[C@@H](c4ccc(Cl)cc4)[C@@H]3C1CC2 (stereo partly specified)	-1.5	99	.	-12
44	CC(C)c1ccc(-c2nn[nH]n2)cc1	-1.0	92	151	-10
45	Oc1c(CN2CCN(c3ccccn3)CC2)cc(Cl)c2cccnc12	-2.6	69	66	-6

No.	Insulin prom inh	HSV replic up primary fold	HSV replic up
31	-15	0.97	i
32	.	0.87	i
33	-7	0.94	i
34	.	0.92	i
35	3	0.94	i
36	-4	0.79	i
37	4	0.94	i
38	.	0.84	i
39	15	0.86	i
40	-32	1	i
41	.	0.88	i
42	.	0.91	i
43	.	0.98	i
44	-33	0.93	i
45	-44	0.76	i

(more compounds)
No.	molecule	GALR2 agonist	RGS16-Gao HTS	Insulin prom inh cell count	PKD1 inh
46	COc1ccc(-n2c(=S)[nH]c3cc(C(=O)NCc4ccco4)ccc3c2=O)c(OC)c1	0.8	105	124	-4
47	CN(c1nc(-c2ccccc2)cs1)C1CCS(=O)(=O)C1 (stereo unspecified)	-1.1	99	74	0
48	FC(F)(F)c1nc2ccccc2n2c(-c3c(Cl)cccc3Cl)nnc12	-1.3	98	57	4
49	O=C(O)CCCCCNC(=O)Nc1ccc2c(c1)OCCO2	-3.5	101	95	1
50	Cc1ccc2c(n1)CC(C)(C)C/C2=N\O	-2.8	103	148*	1
51	O=C(Nc1cccc(Cl)c1)c1ccc(F)c(S(=O)(=O)NCc2cccs2)c1	0.7	81	.	-8
52	Cc1cc(=O)oc2cc(OCc3ccc(S(=O)(=O)N4CCOCC4)cc3)ccc12	-1.4	106	71	16
53	COc1cccc(C2=NOC(C(=O)NCCCn3ccnc3)C2)c1 (stereo unspecified)	1.5	96	95	0
54	CC(C)(C)c1cc(NC(=O)CSc2nnc(NCc3ccccc3)s2)n(-c2ccccc2)n1	-0.7	101	.	-3
55	O=C(NC1CCCCC1)C(c1ccc(F)cc1)N(C(=O)c1cccs1)c1ccc2c(c1)OCO2 (stereo unspecified)	-1.6	99	.	-12
56	COC(=O)CC1C(=O)NC(C)=C1C(=O)OC (stereo unspecified)	.	103	.	.
57	Nc1c(NC2CCCCC2)c2ccccc2oc1=O	-1.8	104	84	-3
58	O=C(COC(=O)c1cncc(Br)c1)NCc1ccccc1Cl	.	106	84	-1
59	O=C(c1ccco1)N1CCN(S(=O)(=O)c2ccc(S(=O)(=O)NC3CCCCC3)cc2)CC1	-1.8	103	.	-4
60	O=C(Nc1nn[nH]n1)c1cccc([N+](=O)[O-])c1	.	96	93	0

No.	Insulin prom inh	HSV replic up primary fold	HSV replic up
46	34	0.91	i
47	-12	1.1	i
48	-111	.	.
49	-19	1.1	i
50	90*	0.94	i
51	.	0.87	i
52	55	0.91	i
53	21	0.98	i
54	.	1	i
55	.	0.86	i
56	.	1.1	i
57	22	1	i
58	-33	0.99	i
59	.	0.84	i
60	38	1.1	i

Part of the list above, with bars between the fields.
entry | Compound | GALR2 agonist | RGS16-Gao HTS | Insulin prom inh cell count | PKD1 inh | Insulin prom inh | HSV replic up primary fold | HSV replic up
50 | Cc1ccc2c(n1)CC(C)(C)C/C2=N\O | -2.8 | 103 | 148* | 1 | 90* | 0.94 | i
51 | O=C(Nc1cccc(Cl)c1)c1ccc(F)c(S(=O)(=O)NCc2cccs2)c1 | 0.7 | 81 | . | -8 | . | 0.87 | i
52 | Cc1cc(=O)oc2cc(OCc3ccc(S(=O)(=O)N4CCOCC4)cc3)ccc12 | -1.4 | 106 | 71 | 16 | 55 | 0.91 | i
53 | COc1cccc(C2=NOC(C(=O)NCCCn3ccnc3)C2)c1 (stereo unspecified) | 1.5 | 96 | 95 | 0 | 21 | 0.98 | i
54 | CC(C)(C)c1cc(NC(=O)CSc2nnc(NCc3ccccc3)s2)n(-c2ccccc2)n1 | -0.7 | 101 | . | -3 | . | 1 | i
55 | O=C(NC1CCCCC1)C(c1ccc(F)cc1)N(C(=O)c1cccs1)c1ccc2c(c1)OCO2 (stereo unspecified) | -1.6 | 99 | . | -12 | . | 0.86 | i
56 | COC(=O)CC1C(=O)NC(C)=C1C(=O)OC (stereo unspecified) | . | 103 | . | . | . | 1.1 | i
57 | Nc1c(NC2CCCCC2)c2ccccc2oc1=O | -1.8 | 104 | 84 | -3 | 22 | 1 | i
58 | O=C(COC(=O)c1cncc(Br)c1)NCc1ccccc1Cl | . | 106 | 84 | -1 | -33 | 0.99 | i
59 | O=C(c1ccco1)N1CCN(S(=O)(=O)c2ccc(S(=O)(=O)NC3CCCCC3)cc2)CC1 | -1.8 | 103 | . | -4 | . | 0.84 | i
60 | O=C(Nc1nn[nH]n1)c1cccc([N+](=O)[O-])c1 | . | 96 | 93 | 0 | 38 | 1.1 | i

Next records.
No.	molecule	GALR2 agonist	RGS16-Gao HTS	Insulin prom inh cell count	PKD1 inh
61	COc1ccc(CC(NC(C)=O)C(=O)NC2CCN(C(=O)c3cc(OC)c(OC)c(OC)c3)CC2)cc1 (stereo unspecified)	.	114	.	.
62	Cc1ccccc1C(=O)N/N=C1\SCC(=O)N1Cc1ccco1	.	107	143	4
63	O=C(CCn1cccc(C(F)(F)F)c1=O)Nc1cccc(C(F)(F)F)c1	.	102	.	.
64	COc1cc(C(c2c(C)[nH][nH]c2=O)c2c(C)[nH][nH]c2=O)cc(OC)c1OC	.	101	.	7
65	COc1ccc2c(c1)[n+](=O)c(C(C)=O)c(C)n2[O-]	-2.0	106	65	5
66	O=C1NN=COc2ccccc21	.	99	108	-2

No.	Insulin prom inh	HSV replic up primary fold	HSV replic up
61	.	0.94	i
62	48	0.95	i
63	.	0.95	i
64	.	1.1	i
65	-53	0.93	i
66	20	0.96	i

Screening data (PubChem)
